HSV replic up = enhancers of HSV replication in host cells, fold increase, host cell viability; HSV replication augmentation in cells; maximum fold increase; actives 0.005% (n = 220,000);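 active = peak rise of 1.5-fold or more in the series; inconclusive = self-fluorescent or not available for retest; tested in PC3 cells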;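 note: first round at 10 µM; read as green reporter fluorescence; hits show the peak of a series up to 25 µM; 1 = signal of infected wells without compound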
Insulin prom inh = inhibitors of insulin promoter-driven GFP, primary screen, imaging, TRM-6 cells (human fetal islet line), eGFP reporter, cell count; actives 0.9% (n = 130,000); inhibition, % at 2 µM; AID 1273, 2008; reporter expression induced with tamoxifen;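 active = inhibition above the mean plus 3 SD, with well images judged a real hit on visual review, cut at about 60% in these data, passing the limit was not always enough; inconclusive = inhibition over the cutoff but images rejected on review; inactive = inhibition not above the cutoff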
GALR2 agonist = GALR2 receptor agonists, primary screen, cell-based. Galanin receptor type 2 (Homo sapiens), O43603. GALR2-expressing cells, agonist activation read-out. activation, %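 (tested at 5 µM)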. actives 0.48% (n = 140,000);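 active = above mean plus 3 SD of all compounds, about 5% in these data, not always enough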;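 note: 0% = vehicle buffer wells and 100% = reference agonist at full effect; tested in CHO reporter cells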
Target sequence (O43603 whole entry, looked up): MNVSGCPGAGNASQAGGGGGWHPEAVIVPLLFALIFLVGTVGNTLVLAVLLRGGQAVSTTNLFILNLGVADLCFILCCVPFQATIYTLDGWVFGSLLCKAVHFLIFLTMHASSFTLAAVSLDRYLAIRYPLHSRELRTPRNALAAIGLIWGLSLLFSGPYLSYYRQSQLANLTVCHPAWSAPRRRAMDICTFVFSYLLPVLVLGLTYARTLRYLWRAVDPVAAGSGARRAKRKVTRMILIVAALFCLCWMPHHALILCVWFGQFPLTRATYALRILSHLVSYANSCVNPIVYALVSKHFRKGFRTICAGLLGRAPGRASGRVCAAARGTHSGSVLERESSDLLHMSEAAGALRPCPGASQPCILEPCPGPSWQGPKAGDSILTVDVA
PKD1 inh = inhibitors of human PKD1 kinase, biochemical, fluorescence polarization; Serine/threonine-protein kinase D1 (Homo sapiens), Q15139; PKD1 kinase fluorescence polarization assay; inhibition, %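 (about 10 µM by stock and volumes)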; actives 0.056% (n = 200,000);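 active = inhibition of 50% or more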;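 note: controls were vehicle for no effect and a reference inhibitor for full effect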
RGS16-Gao HTS = modulators of RGS16 binding to Galphao, primary screen, biochemical, human proteins, multiplexed bead flow cytometry; binding response (% of control), % at 10 µM; Regulator of G-protein signaling 16 (Homo sapiens) + Guanine nucleotide-binding protein …; AID 1441, 2008; bead-based flow cytometry RGS16-Galphao binding, fluorescence; actives lie on both sides; actives 0.38% (n = 220,000);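 active = below 25% or above 175%, edge rows of some plates excepted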;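 note: Galphao activated by GDP with aluminum fluoride before binding; 100% = wells without compound and 0% = beads without RGS; some results beyond the cut were filed as inactive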
Target sequence (O15492 whole entry, looked up): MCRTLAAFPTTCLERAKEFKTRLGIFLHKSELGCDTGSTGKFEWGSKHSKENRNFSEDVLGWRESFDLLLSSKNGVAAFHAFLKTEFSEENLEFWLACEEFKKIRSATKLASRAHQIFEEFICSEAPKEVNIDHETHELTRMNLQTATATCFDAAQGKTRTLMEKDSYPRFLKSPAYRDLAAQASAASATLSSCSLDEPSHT
Target sequence (P09471 whole entry, looked up): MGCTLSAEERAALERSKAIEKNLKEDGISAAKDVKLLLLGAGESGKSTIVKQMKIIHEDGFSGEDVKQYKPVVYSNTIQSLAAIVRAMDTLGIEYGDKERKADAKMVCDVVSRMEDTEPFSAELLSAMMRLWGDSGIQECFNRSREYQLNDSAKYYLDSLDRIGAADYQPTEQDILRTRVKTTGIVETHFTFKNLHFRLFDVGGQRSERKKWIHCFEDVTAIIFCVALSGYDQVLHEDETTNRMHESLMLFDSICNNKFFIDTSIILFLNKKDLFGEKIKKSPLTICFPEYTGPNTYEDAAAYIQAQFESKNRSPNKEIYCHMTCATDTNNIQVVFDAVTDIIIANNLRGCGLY
Insulin prom inh cell count = also measured in Insulin prom inh; calls as there; normalized cell count, %; measured here: cell count, toxicity; reference of the scale not given here;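 cells exposed to compound for 48 h; stained nuclei by imaging scaled within each plate; lower means fewer cells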
HSV replic up primary fold = second read-out of HSV replic up, no call of its own (marks repeat the call); fold increase; compound at 10 µM; measured here: primary screen fold increase 10 uM; tested in PC3 cells;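 GFP signal in the first replicate; 1 = infected wells without compound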
Starred values were filed as active, the others as inactive; i = inactive; ? = inconclusive; · = not tested or not shown.

SMILES	HSV replic up	HSV replic up primary fold	Insulin prom inh	Insulin prom inh cell count	GALR2 agonist	PKD1 inh	RGS16-Gao HTS
CCOC(=O)c1cc(-c2ccccc2)sc1NC(=O)C(C)C	i	1.1	·	·	1.4	-8	100
CC(C)c1nnc(SCC(=O)NC(C)(C)C)n1C	i	0.91	·	·	·	0	95
COC(=O)CC(c1ccc(C#N)cc1)n1c(C)ccc1C (stereo not drawn)	i	1	·	·	·	0	104
CCOC(=O)c1[nH]c2ccccc2c1NC(=O)c1cc(OC)c(OC)c(OC)c1	i	0.87	-15	72	-2.6	1	·
CCOC(=O)N1CCN(C(=O)COc2ccc(S(=O)(=O)NCc3ccccc3)cc2)CC1	i	0.95	-23	65	-1.9	-6	101
CCCCOc1ccc(-c2nc(/C=N/c3nccs3)c(O)o2)cc1	i	0.95	-9	47	-1.2	-5	108
COc1cc(C(c2sc3ncnn3c2O)N2CCN(c3ccccc3F)CC2)cc(OC)c1OC (stereo not drawn)	i	0.87	·	·	0.9	-2	100
Cc1ccc(C(=O)N2CCCC(c3nc4c(nnn4Cc4ccccc4)c(=O)[nH]3)C2)cc1 (stereo not drawn)	i	1.4	14	58	0.5	-4	113
CCOc1ccc(-c2nc(CSCC(=O)NCCN3CCOCC3)c(C)o2)cc1	i	1	9	102	-1.6	3	102
CSc1cccc(-n2cc(-c3ccc4c(c3)OCO4)[nH]c2=O)c1	i	0.59	·	·	-1.6	8	98
O/N=C1\CCc2cc(Cl)ccc21	i	0.94	·	·	-1.5	-8	105
NC(=O)COC(=O)c1sc2cc(F)ccc2c1Cl	i	0.96	·	·	·	-6	107
C=CCN1C(=O)CS/C1=C(\C#N)S(=O)(=O)c1ccc(C)cc1	i	1.2	-67	192	-1.7	1	102
CCOC(=O)c1cn(CC)c2cc(N3CCCCC3)c(F)cc2c1=O	i	0.97	22	110	-2.9	3	·
CC(C)OC(=O)CSc1nnc(C2CCCCC2)n1N	i	1.1	·	·	·	·	97
Cc1nc(NCCN2CCOCC2)c2nnn(Cc3c(F)cccc3Cl)c2n1	i	1	21	150	-0.9	-26	104
CCC(=O)n1nc(-c2ccc(OC)cc2)nc1NCc1cccs1	i	0.87	·	·	·	-6	90
O=C(CCc1nnc(Cc2ccc(-c3ccccc3)cc2)o1)NCC1CC1	i	1.1	·	·	·	-3	162
CC(C(=O)Nc1ccncc1)(c1ccccc1)c1ccccc1	i	1	·	·	·	-5	94
Cc1csc(NC(=O)CSc2nc3ccccc3c3c2CCCC3)n1	i	0.93	·	·	0.1	-6	108

Record cards, from the list above. Screens in order: HSV replic up	HSV replic up primary fold	Insulin prom inh	Insulin prom inh cell count	GALR2 agonist	PKD1 inh	RGS16-Gao HTS
CC(C)c1nnc(SCC(=O)NC(C)(C)C)n1C is entered as i	0.91	·	·	·	0	95
CC(C)OC(=O)CSc1nnc(C2CCCCC2)n1N is entered as i	1.1	·	·	·	·	97

3 successive entries from above, quoted:
SMILES	HSV replic up	HSV replic up primary fold	Insulin prom inh	Insulin prom inh cell count	GALR2 agonist	PKD1 inh	RGS16-Gao HTS
CCOC(=O)c1cc(-c2ccccc2)sc1NC(=O)C(C)C	i	1.1	·	·	1.4	-8	100
CC(C)c1nnc(SCC(=O)NC(C)(C)C)n1C	i	0.91	·	·	·	0	95
COC(=O)CC(c1ccc(C#N)cc1)n1c(C)ccc1C (stereo not drawn)	i	1	·	·	·	0	104

Later entries:
SMILES	HSV replic up	HSV replic up primary fold	Insulin prom inh	Insulin prom inh cell count	GALR2 agonist	PKD1 inh	RGS16-Gao HTS
Cc1cc(C)nc(SCC2COc3ccccc3O2)n1 (stereo not drawn)	i	0.79	28	81	-0.9	8	99
O=C(CNC(=O)c1cccs1)OCC(=O)c1ccc(Cl)cc1	i	0.98	-57	87	·	-10	112
CCNC(=S)N/N=C/c1sccc1C	i	1	25	126	·	4	105
COc1cc(C(=S)N2CCOCC2)ccc1OC(=O)/C=C/c1ccco1	i	0.89	31	95	·	-1	104
CC(C)(CNCC(O)c1ccccc1)N1CCOCC1 (stereo not drawn)	i	0.98	3	100	-1.2	2	101
Cc1cccc(N2CCN(C(=O)C34CC5CC(CC(C5)C3)C4)CC2)c1C	i	0.92	-57	114	1.4	-6	52
O=C(Nc1ccccc1C1CC1)c1cccs1	i	0.93	·	·	-0.9	-6	103
CCOC(=O)c1ccc(NC(=O)NCCc2ccccc2OC)cc1	i	0.82	-33	142	·	3	109
O=C(Nc1ccc2c(c1)OCO2)C1CCN(S(=O)(=O)Cc2ccccc2)CC1	·	·	·	·	-2.1	-4	97
Cc1c(-c2ccccc2)nc2ccccc2c1C(=O)NCc1cccs1	i	1	·	·	-1.9	-4	101
Cc1ccc(OCCCC(=O)Nc2nncs2)cc1	i	0.87	·	·	-3.2	-2	103
CCN(C(=O)C(C)Cl)c1ccccc1 (stereo not drawn)	i	1	12	98	·	-1	111
COc1ccc2[nH]cc(C(=O)CN3CCCCC3C)c2c1 (stereo not drawn)	i	1	·	·	-2.5	0	98
Cc1cc(NC(=O)c2ccccc2)nc(C)n1	i	0.97	·	·	·	·	174
CCN(Cc1ccccc1)c1ccc(/C=N/NS(=O)(=O)c2cccc([N+](=O)[O-])c2)cc1	·	·	-23	89	-1.5	-6	101
CCOc1ccc(NC(=O)N2CCN(c3nc4ccccc4s3)CC2)cc1	·	·	3	98	-0.3	-7	95
Cc1cc(C(=O)Cn2nc(C(=O)O)c3ccccc3c2=O)c(C)n1CCc1ccc(F)cc1	i	1.2	·	·	·	·	103
CCn1c(=O)c(C(=O)CN2CCN(S(=O)(=O)c3ccccc3)CC2)c(N)n(Cc2ccccc2)c1=O	i	0.76	·	·	·	4	93
Cc1nnsc1C(=O)N1CCCC(C(=O)c2ccc(C(F)(F)F)cc2)C1 (stereo not drawn)	i	1.1	·	·	·	11	101
CC(C)(C)c1ccc(COc2ccsc2C(=O)O)cc1	·	·	-23	96	·	1	155
Cc1cc2cc(CNC(=S)Nc3ccc(OC(F)(F)F)cc3)ccc2n1C	·	·	7	121	-2.6	7	93
O=C(CSc1nnc(-c2ccc(S(=O)(=O)N3CCCC3)cc2)o1)N1CCCC1	·	·	-100	50	-2.2	6	·
COc1ccc(CNC(=O)COC(=O)c2cc(-c3ccco3)nc3ccccc23)cc1	·	·	12	111	-2.8	-3	90
COc1ccc(-c2c(C)oc3cc(O)cc(O)c3c2=O)cc1OC	i	0.91	-10	34	-0.1	-2	92
CCCN(CCC)C1Sc2ccc(C(=O)OC)cc2NC1=O (stereo not drawn)	·	·	23	187	-1.2	-3	106
Oc1ccccc1-c1cc(-c2cccc(F)c2)n[nH]1	i	0.9	24	108	-2.3	-8	91
COC(=O)c1sccc1NC(=O)Nc1cccc(C)c1	i	0.79	·	·	·	-5	97
O=C(Cc1ccccc1)Nc1cccc(-c2nnc(-c3ccco3)o2)c1	i	0.85	·	·	-1.3	4	103
O=C(Cn1cnc2c(cnn2-c2ccc(F)cc2)c1=O)NCC1CCCO1 (stereo not drawn)	i	1	-71	119	-2.4	5	98
Cc1nc(NCCN)c(C#N)c2c1COC(C)(C)C2	·	·	37	139	-0.8	-5	136
Cc1ccc(Nc2nc(N)nc(CN3CCCCCC3)n2)cc1	i	1	3	106	-0.8	-2	107
COc1cc(CNCc2ccncc2)cc(Br)c1OCc1ccccc1F	i	0.96	·	·	-2.5	-8	95
COc1cccc(N2C(=O)C3NN=C(C(=O)CN4C(=O)c5ccccc5C4=O)C3C2=O)c1 (stereo not drawn)	i	1.3	·	·	·	·	99
O=S(=O)(NCCc1ccc(F)cc1)c1cccc2cccnc12	i	0.94	·	·	·	0	100
CC(C)n1c(CCC(=O)O)ccc1-c1ccccc1	i	1	·	·	-0.8	-11	101
CCCCOc1cccc(-c2nnc(N)s2)c1	i	0.86	11	144	-2.7	-1	103
Cn1c(CNc2nc3ccccc3n2C)nc2ccccc21	i	1	-16	81	0.3	6	164
COc1cccc(C(=O)CSc2nc3cccnc3n2C)c1	i	1.1	48	127	-1.4	-3	128
CC(C)C(C(=O)Nc1ccccc1)N1C(=O)c2ccccc2C1=O (stereo not drawn)	i	1.1	·	·	-0.9	-7	103
Cc1ccccc1OCc1nc(-c2ccc(-n3cccc3)cc2)no1	i	1.1	·	·	-2.5	-2	102
CCOCCCNCc1cccc(OC)c1	i	0.81	·	·	-1.4	-8	106
N/C(=N\OC(=O)Cc1cccs1)c1ccc(Cl)cc1	i	1.1	·	·	·	·	90
CCC(Sc1nc(C)cc(C)n1)C(=O)Nc1ccc(Cl)cn1 (stereo not drawn)	i	0.84	50	160	-1.4	-4	101
Cc1ccc(NC(=O)CSc2nc(N)c3c4c(sc3n2)CSC(C)(C)C4)cc1	i	0.83	-41	105	-1.3	-2	105
Cc1nn(C)cc1S(=O)(=O)N1CCN(Cc2ccc(F)cc2Cl)CC1	i	0.9	·	·	·	-10	93
Cc1ccccc1NC(=O)CSc1nc(N)c(C#N)cc1C#N	i	0.87	28	83	-0.5	3	101
Cc1ccc(-n2nnc(-c3cnc4ccccc4c3)n2)cc1	·	·	·	·	·	0	101
COc1cc(C(=O)N/N=C(\C)c2ccc3c(c2)OCO3)cc(OC)c1OC	i	0.63	·	·	·	1	105
CCC[n+]1c(C)sc2c(OC)ccc(OC)c21	i	1	17	122	·	-11	96
CCOc1ccc(N2C(=O)C3Sc4[nH]c(=O)sc4C(/C=C/c4ccccc4)C3C2=O)cc1 (stereo not drawn)	?	·	·	·	0.0	4	94
Cc1ccc(C(=O)NC(=S)Nc2cccc(-c3nc4ccccc4s3)c2)cc1	i	0.89	·	·	0.2	-9	104
CCCCN(Cc1ccccc1)C(=O)C1CCN(S(=O)(=O)c2c(C)noc2C)CC1	i	1	-21	93	-1.7	-7	52
CC(=O)Nc1ccc(OCC(O)CN2C(C)(C)CC(O)CC2(C)C)cc1 (stereo not drawn)	i	0.84	-3	114	-0.3	-1	105
COCCN1C=C2C(=O)C(C)(OC(=O)c3cccs3)C(=O)C=C2C=C1CCCC(=O)OC (stereo not drawn)	i	0.93	·	·	·	·	96
CCN(CC)S(=O)(=O)N1CCN(S(=O)(=O)N2CCOCC2)CC1	i	1	-6	84	·	4	86
CCCCOc1ccc(CSCCN)cc1Cl	i	0.76	·	·	·	·	101
CC(C)CCNC(=O)C(c1ccco1)N(Cc1ccc(F)cc1)C(=O)c1snc(C(N)=O)c1N (stereo not drawn)	i	1	-39	97	-1.8	-5	107
Cc1ccc(C)c2nc(SCC(=O)NCc3cccs3)c(C#N)cc12	i	1.1	-22	83	-1.8	-10	50
C/C(=N\Nc1nc2ccccc2[nH]1)c1ccc([N+](=O)[O-])cc1	i	0.84	·	·	·	·	100
CC(C)(C)NC(=O)COC(=O)c1nsc(Cl)c1Cl	i	1.1	-17	105	-1.6	-5	98
COc1ccc(CN(Cc2nc3ccccc3c(=O)[nH]2)C(=O)C(C)(C)C)cc1	i	0.89	13	78	-1.2	4	97
CC(=O)c1c(COC(=O)c2cccc(C)c2)nc2ccccc2[n+]1[O-]	i	0.96	·	·	·	·	96
Fc1ccccc1CSc1ncnc2c1oc1ccccc12	i	0.96	·	·	-1.0	6	105

4 entries from above, with each value named.
> CCC(Sc1nc(C)cc(C)n1)C(=O)Nc1ccc(Cl)cn1 (stereo not drawn)
  HSV replic up: i
  HSV replic up primary fold: 0.84
  Insulin prom inh: 50
  Insulin prom inh cell count: 160
  GALR2 agonist: -1.4
  PKD1 inh: -4
  RGS16-Gao HTS: 101
> Cc1ccc(NC(=O)CSc2nc(N)c3c4c(sc3n2)CSC(C)(C)C4)cc1
  HSV replic up: i
  HSV replic up primary fold: 0.83
  Insulin prom inh: -41
  Insulin prom inh cell count: 105
  GALR2 agonist: -1.3
  PKD1 inh: -2
  RGS16-Gao HTS: 105
> Cc1nn(C)cc1S(=O)(=O)N1CCN(Cc2ccc(F)cc2Cl)CC1
  HSV replic up: i
  HSV replic up primary fold: 0.9
  Insulin prom inh: ·
  Insulin prom inh cell count: ·
  GALR2 agonist: ·
  PKD1 inh: -10
  RGS16-Gao HTS: 93
> Cc1ccccc1NC(=O)CSc1nc(N)c(C#N)cc1C#N
  HSV replic up: i
  HSV replic up primary fold: 0.87
  Insulin prom inh: 28
  Insulin prom inh cell count: 83
  GALR2 agonist: -0.5
  PKD1 inh: 3
  RGS16-Gao HTS: 101

Compounds were not picked by outcome (roughly 1.2% active in at least one column).
